Assay outcomes (PubChem)
Kir21 block: blocks the mouse Kir2.1 inward-rectifier potassium channel; P35561; HEK293-Kir2.1, FluxOR thallium flux fluorescence; stronger effect = lower value; B-score at 10 µM; 310,000 compounds, 0.85% hits; AID 1672;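 active means fluorescence ratio B-score at or below minus 3 SD of library scores, with starting-brightness B-score within 2 SD, cut at about -4.2 in these data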;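 further: channel flux triggered by added potassium and thallium sulfate stimulus; B-score of peak minus minimum fluorescence over baseline after thallium stimulus; more negative B-score means stronger Kir2.1 block with less thallium influx; some compounds called inactive have numbers as strong as hits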
Target sequence (P35561 whole entry, looked up): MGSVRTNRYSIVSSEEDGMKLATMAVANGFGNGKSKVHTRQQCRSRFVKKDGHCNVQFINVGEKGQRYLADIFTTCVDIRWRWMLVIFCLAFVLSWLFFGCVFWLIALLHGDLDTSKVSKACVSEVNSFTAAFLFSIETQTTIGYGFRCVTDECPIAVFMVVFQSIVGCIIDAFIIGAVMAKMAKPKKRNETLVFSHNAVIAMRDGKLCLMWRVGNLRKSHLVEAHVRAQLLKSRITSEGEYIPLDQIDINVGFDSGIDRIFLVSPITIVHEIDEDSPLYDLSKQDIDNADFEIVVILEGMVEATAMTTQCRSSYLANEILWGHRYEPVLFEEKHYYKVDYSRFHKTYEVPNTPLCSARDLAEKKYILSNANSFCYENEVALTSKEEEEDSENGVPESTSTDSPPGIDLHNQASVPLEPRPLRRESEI
* hit, by the source's call.

SMILES	Kir21 block
Cc1cc(C(=O)N[C@@H](c2ccccc2)[C@]2(C)C[C@H]2[C@@H](C)C(=O)Nc2ccc3ccccc3c2)no1	1.3
O=C(/C=C/N1CCOCC1)c1coc2ccccc12	-0.85
O=c1[nH]c(CN2CCCC2)nc2sc3c(c12)CCC3	2.8
CCN(CCO)Cc1csc2cccc(Br)c12	-1.2
CS(=O)(=O)N1CCN(CC2CC3C=CC2C3)CC1 (stereo not given)	-0.52
CC(=O)Oc1cccc(N2C(=O)c3ccccc3C2=O)c1	-2.2
C=CCc1cc(Cl)ccc1OCCOCCNC(C)(C)C	-3
Cc1ccc(N2CC(C(=O)NC3CC3)CC2=O)cc1Cl (stereo not given)	-0.45
Cc1cc(-c2nn3c(C)nnc3s2)ccc1NC(=O)C(C)(C)C	-0.31
O=C(NNC(=O)c1cccc2ccccc12)c1ccc(-c2ccccc2)cc1	-1.3
COc1ccccc1-c1c(C(F)(F)F)oc2cc(OCC(=O)Nc3ccccc3C(F)(F)F)ccc2c1=O	0.29
CCOC(=O)C1CN(S(=O)(=O)c2ccc(Cl)cc2)c2cc(S(=O)(=O)CC)ccc2O1 (stereo not given)	-0.27
CCOc1ccc(N2C(=O)S/C(=C\c3cccn3C)C2=O)cc1	1.2
CC(=O)c1c(C)[nH]c(C(=O)OCC(=O)N(C)C)c1C	0.89
O=C(NCc1ccco1)/C(=C/c1cccc(C(F)(F)F)c1)c1nc2ccccc2[nH]1	-1.5
CC(=O)Nc1ccc(NC(=O)CC(C)n2ccnc2)cc1 (stereo not given)	-1.7
O=C(O)/C=C/c1cccc(OCc2ccccc2)c1	0.04
COc1ccc(Cl)cc1S(=O)(=O)N1CCC(C(=O)NCCC2=CCCCC2)CC1	-0.76
COc1ccccc1CNC(=O)CCNC(=O)C1CCN(S(=O)(=O)c2ccccc2)CC1	-0.01
O=C(Nc1ccc(CN2CCOCC2)cc1)c1ccc2ccccc2c1	0.17
NS(=O)(=O)c1ccc(CCNC(=S)NC2CCCCC2)cc1	1.4
O=C(COCC(=O)N1CCOCC1)N1CCOCC1	0
O=C(Nc1cc2c(cc1C(=O)O)OCCCO2)c1ccc(C(F)(F)F)cc1	-1.2
Cc1ccc(-c2nnn(CC(=O)NCC3COCCO3)n2)o1 (stereo not given)	0.48
O=C(Nc1ccc(CN2CCCCC2)cc1)c1ccc(Br)o1	0.95
COc1ccc([N+](=O)[O-])cc1N(CC(=O)NCC1CCCO1)S(C)(=O)=O (stereo not given)	-0.54
CC(C)(C)n1nnnc1CN(Cc1ccc(F)cc1)Cc1ccco1	-0.02
COc1cccc(CC(=O)N2CCN(S(=O)(=O)c3ccc(Br)cc3)CC2)c1	-2.8
NC(=O)CCN(C1CCCCC1)S(=O)(=O)c1cccc2nsnc12	1.3
CCOC(=O)Cn1c(=O)oc2cc(S(=O)(=O)Nc3cccc(C)c3)ccc21	-0.01
CCOc1c(Cl)cc(CNCc2ccccn2)cc1OC	-1.4
Cn1c(SCC(=O)Nc2ccccc2F)nnc1-c1cccnc1	-1.1
CC(=O)Nc1ccc(S(=O)(=O)N(Cc2ccccc2)C(C)C)cc1	-0.18
CC(C)(C)OC(=O)N1CCC[C@H]1c1nnc(SCc2c(F)cccc2Cl)o1	-3.8
CC(C)COC(=O)Nc1ccc(C(=O)O)cc1	-2
COc1ccc(C(=O)CN2CCN(c3ccc(Cl)cc3)CC2)cc1OC	0.18
C#CCOCCOCCOCCNc1nc(N2CCN(C(=O)Cn3cc(CCCCN)nn3)CC2)nc(N2CCN(C(=O)[C@H](C(C)C)n3cc(CCO)nn3)CC2)n1	0.09
N/C(=N\O)c1ccc(Cl)cc1Cl	-0.54
CCOc1ccc(C(=O)NCC2CCCN2S(=O)(=O)c2cccs2)cc1 (stereo not given)	-0.11
O=C(CN(c1ccccn1)S(=O)(=O)c1ccc(F)cc1)Nc1ccccc1	-1.8
COc1ccc(NC(=O)c2cccnc2)c([N+](=O)[O-])c1	-1.4
COc1ccc(OC)c(N(CC(=O)Nc2ccccc2)S(=O)(=O)c2ccccc2)c1	0.05
CCOC(=O)c1c(-c2ccccc2)oc2ccc(OCC(=O)NNC(=O)CCC(=O)O)cc12	-0.03
COc1cc(C(O)P(=O)(OCC(C)C)OCC(C)C)cc(OC)c1OC (stereo not given)	-0.99
O=C(O)C[C@@H](O)C(=O)O	-2.6
O=C(c1ccccc1)N1CCc2[nH]nc(-c3ccccc3)c2C1	0.45
Cn1c(Cn2nnc3ccccc32)nnc1SCC(=O)c1ccc(F)cc1	0.28
Cc1cc2occ(CC(=O)N(C)CC(=O)Nc3cccc(F)c3)c2cc1C	-0.31
CC1(C)CC(=O)C/C(=N\NC(=S)NCc2ccccc2)C1	0.08
COc1cc(C(=O)NCc2ccc3c(c2)OCO3)c([N+](=O)[O-])cc1OC	-0.02
Other entries.
SMILES	Kir21 block
N#CC1=C(Nc2ccccc2Cl)SC(c2ccccc2O)NC1=O (stereo not given)	-1.4
Cc1cc(Cl)c(S(=O)(=O)Nc2ccc3c(c2)OCO3)cc1OCC(=O)NC1CCCCC1	-0.64
COCC(C)Nc1ncnc2c1cnn2-c1ccc(Cl)cc1 (stereo not given)	-0.35
c1ccc2c(CNc3ccc(CNc4ncn[nH]4)cc3)cccc2c1	-0.02
O=C(c1ccco1)N1CCN(C(=O)N2CCCC2)CC1	0.19
FC(F)Oc1ccc(NC(=S)NCc2ccccc2)cc1	0.7
CCOc1ccc(Br)cc1S(=O)(=O)Nc1cccc(S(=O)(=O)N(CC)CC)c1	-0.17
O=S(=O)(c1ccccc1)N(CC(O)CN1CCCC1)c1ccccc1 (stereo not given)	1.8
Cc1nc2cc(Nc3ccncc3)ccc2s1	-0.71
N=c1ccn2c(n1)O[C@H]1[C@H](O)[C@@H](CO)O[C@H]12	0.52

Another view of part of the listing above:
Cc1ccc(-c2nnn(CC(=O)NCC3COCCO3)n2)o1 (stereo not given)
  Kir21 block: 0.48
O=C(Nc1ccc(CN2CCCCC2)cc1)c1ccc(Br)o1
  Kir21 block: 0.95

(cont.)
SMILES	Kir21 block
O=c1oc2ccccc2c(Nc2ccc(O)cc2)c1[N+](=O)[O-]	-0.02
CCN(CC)CC#Cc1ccc(C)cc1	0.3
CC(C)C(=O)Nc1ccc(Br)cc1Cl	0.81
COc1ccc(C(=O)NNC(=S)NC2CCCCC2)cc1OC	0.99
Cc1csc(NC(=O)CSc2nnnn2C)n1	-0.72
O=C(CC(c1ccco1)S(=O)(=O)c1ccccc1)c1ccc(F)cc1 (stereo not given)	-0.39
Cc1ccccc1NC(=O)c1c(Cl)nc(C)c(Cl)c1C	-0.31
CN(c1ccccc1C(=O)Nc1cccc(C(F)(F)F)c1)S(C)(=O)=O	0.9
Cc1cc(C(=O)Nc2cccc3cccnc23)ccc1[N+](=O)[O-]	1.8
Cc1nn(Cc2ccccc2Cl)c(C)c1C(=O)NCc1ccco1	-1.3
NCCS(=O)(=O)O	-1.3
Cc1nc(-c2ccc(Cl)cc2)sc1C1(C)CC(c2ccncc2)=NO1 (stereo not given)	-0.06
Cc1ccc(C(C)C)cc1S(=O)(=O)Nc1cccnc1	-0.5
CCc1nc2cccnc2n1-c1ccc(C(=O)O)cc1	0.08
COc1cc(/C=C/C(=O)O)cc(S(=O)(=O)N(CC(C)C)CC(C)C)c1OC	0.45
Cc1oc(C(=O)O)cc1CSCc1cc(C(=O)O)c(C)o1	1.3
COC(=O)c1ccc(CN2CCC(CO)(CCOc3ccccc3)CC2)cc1	-0.6
COc1c(C)cc(Br)cc1C(=O)Nc1ccccc1C	-1.6
CCc1ccc(N(C(=O)c2snc(C(N)=O)c2N)C(C(=O)NC2CCCC2)c2ccco2)cc1 (stereo not given)	0.53
CCOC(=O)C1CCCc2c1[nH]c1c(C(N)=O)cccc21 (stereo not given)	0
Cc1sc(NC(=O)CSc2nnc(COc3ccc(Cl)cc3)n2C)c(C#N)c1C	0.32
COc1ccccc1C1NC(=O)CS1 (stereo not given)	1.5
CC(C)CCn1nnnc1CN1CCN(C(=O)c2ccco2)CC1	0.24
Cc1ccc(S(=O)(=O)CCC(=O)OCc2nc(N)nc(Nc3ccccc3C)n2)cc1	-1.2
CCOc1cccc(C(=O)Nc2cccc(C(=O)NC(C)(C)C)c2)c1	-0.01
OC(CN1CCN(c2ccccc2)CC1)c1ccc2c(c1)CCN2 (stereo not given)	0.82
CC(=O)Nc1cccc(NC(=O)COc2ccc3c(c2)OCO3)c1	0.42
CC(=O)n1nc(-c2cccnc2)nc1NCc1cccs1	-0.55
Cc1nn(Cc2noc(C(=O)NCc3ccc4c(c3)OCO4)n2)c(C)c1Br	-1.9
CCC(C)c1ccc(OCC(=O)Nc2cccc(C(=O)Nc3ccc(C(=O)O)cc3)c2)cc1 (stereo not given)	2.5
CCCCC(CC)CNC(=O)Cn1c(=S)[nH]c2ncccc2c1=O (stereo not given)	1.1
O=C(Cc1c(F)cccc1Cl)NC1=NCCS1	0.1
COc1ccc(OC)c2[nH]c(C(=O)O)cc12	-0.75
O=c1oc2c(CN3CCOCC3)c(O)ccc2c2c1CCCC2	-0.37
O=C1c2cccc(OCC(=O)N3CCCc4ccccc43)c2CCN1Cc1cccnc1	-3
COc1cccc(N2CCN(C(=O)CCS(=O)(=O)c3ccc4c(c3)oc(=O)n4C)CC2)c1	0.1
CCOC(=O)C1CCCN(C(=O)c2cccs2)C1 (stereo not given)	1.5
CCCCN1C(=S)NC[C@@H]1Cc1ccccc1	1.5
CCOC(=O)c1c(C)nc2c(C)cccn12	1.5
CCOP(=O)(OCC)c1nc(/C=C/c2ccccc2)oc1NCc1ccccc1	-0.83
COc1cc(OC)c(NS(=O)(=O)c2coc(C(N)=O)c2)cc1Cl	-1.9
O=C(CCc1ccc(S(=O)(=O)NCc2ccccc2)cc1)NCC1CCCO1 (stereo not given)	0.12
CC(=O)c1cccc(NC(=O)COC(=O)c2cccs2)c1	-0.65
CCn1c(SCC(=O)Nc2nnc(C)s2)nc2c(c1=O)SC(C)C2 (stereo not given)	-0.8
O=C(N/N=C/c1cc2c(cc1Cl)OCO2)c1ccccn1	-0.26
Cc1ccc(NC(=O)Cn2c(=O)n(CCC(=O)NC3CCN(Cc4ccccc4)CC3)c(=O)c3ccccc32)cc1	-1.6
NS(=O)(=O)c1ccc(CCNC(=O)CNS(=O)(=O)c2cccc(Br)c2)cc1	-3.3
CCOc1ccc(C2=Nn3cnnc3SC2)cc1	-2.2
CC1=C(C(N)=O)C(c2cccs2)NC(=S)N1 (stereo not given)	0.38
COc1ccc(/C=N\NC(=O)c2ccc([N+](=O)[O-])cc2)cc1COc1c(F)c(F)cc(F)c1F	-0.01
Going on with the list.
SMILES	Kir21 block
CCC(C(=O)N1CCN(Cc2ccc3c(c2)OCO3)CC1)n1c(=O)[nH]c2ccccc2c1=O (stereo not given)	0.4
Cc1ccc(NC(=O)C(NS(=O)(=O)c2cccc3nsnc23)C(C)C)nc1 (stereo not given)	2.3
S=C1CCC(c2ccc(Cl)cc2)=NN1c1ccccc1	-0.46
COc1ccc(CCNC(=O)c2cc(C(=O)c3cc(C)ccc3O)cn(CCc3ccc(OC)cc3)c2=O)cc1	-0.5
O=C(NCCC(=O)N1CCNC1=O)OCc1ccccc1	-1.3
CCOC(=O)c1c(NC(=O)CSc2nnc(Cc3csc(N)n3)n2C)sc(C)c1C	-0.43
Cc1ccc(S(=O)(=O)c2cc(C#N)c(=O)[nH]c2N)cc1	0.17
O=C1NC(=O)c2cc(NC(=O)C3COc4ccccc4O3)ccc21 (stereo not given)	-0.1
COc1ccc(CN2CCN(CCCc3ccccc3)C(CCO)C2)c(O)c1 (stereo not given)	-0.58
COC(=O)CCC(=O)NNC(=O)CCCOc1ccc(Cl)cc1Cl	1
COc1cccc(-n2c(-c3ccc4[nH]c(C)c(C)c4c3)n[nH]c2=S)c1	-1.8
O=S(=O)(c1cccc(C(F)(F)F)c1)N1CCCC1c1cccnc1 (stereo not given)	-1.4
Cc1cc(NC(=O)CSCc2nc(-c3cccc(F)c3)oc2C)no1	-0.17
COc1ccc(NC(=O)c2cccnn2)cc1	-0.02
NS(=O)(=O)c1ccc(CCNC(=O)CCCn2c(SCC(=O)N3CCCC3)nc3ccsc3c2=O)cc1	1.5
Cc1cc(OC(=O)c2ccccc2C(F)(F)F)c([N+](=O)[O-])c(=O)[nH]1	0.63
Cc1ccc(C)c(-n2ccnc2SCC(N)=O)c1	2
COC(=O)c1[nH]c2ccccc2c1NC(=O)Oc1ccccc1	0.3
CCC(=O)N(Cc1cc2ccccc2[nH]c1=O)C(C)C	0.05

Entries from the list above containing an NH in an aromatic ring:
SMILES	Kir21 block
O=c1[nH]c(CN2CCCC2)nc2sc3c(c12)CCC3	2.8
CC(=O)c1c(C)[nH]c(C(=O)OCC(=O)N(C)C)c1C	0.89
O=C(NCc1ccco1)/C(=C/c1cccc(C(F)(F)F)c1)c1nc2ccccc2[nH]1	-1.5
O=C(c1ccccc1)N1CCc2[nH]nc(-c3ccccc3)c2C1	0.45
c1ccc2c(CNc3ccc(CNc4ncn[nH]4)cc3)cccc2c1	-0.02
CCOC(=O)C1CCCc2c1[nH]c1c(C(N)=O)cccc21 (stereo not given)	0
CCCCC(CC)CNC(=O)Cn1c(=S)[nH]c2ncccc2c1=O (stereo not given)	1.1
COc1ccc(OC)c2[nH]c(C(=O)O)cc12	-0.75
CCC(C(=O)N1CCN(Cc2ccc3c(c2)OCO3)CC1)n1c(=O)[nH]c2ccccc2c1=O (stereo not given)	0.4
Cc1ccc(S(=O)(=O)c2cc(C#N)c(=O)[nH]c2N)cc1	0.17
COc1cccc(-n2c(-c3ccc4[nH]c(C)c(C)c4c3)n[nH]c2=S)c1	-1.8
Cc1cc(OC(=O)c2ccccc2C(F)(F)F)c([N+](=O)[O-])c(=O)[nH]1	0.63
COC(=O)c1[nH]c2ccccc2c1NC(=O)Oc1ccccc1	0.3
CCC(=O)N(Cc1cc2ccccc2[nH]c1=O)C(C)C	0.05

Only part of the results is shown; most or all hits stand in other tables.
